Compound activity as filed in PubChem BioAssay.
ClpP mod = qHTS Assay for Activators of ClpP; AID 651965, 2013; Potency, µM (series often up to 57.5 µM), for inactives: top-dose activity change, negative = active; purified B. subtilis ClpP, FRET peptide cleavage, 20 min; hit rate 1.9% among 340,000; ATP-dependent Clp protease proteolytic subunit (Bacillus subtilis (strain 168)), P80244; active = well fitted falling curve with a large enough effect; inconclusive = small, poorly fitted or top-dose-only effect; inactive = no such curve, though single readings can be large or run the other way; further: potency means the concentration at half of the fitted maximal effect; the source files actives as falling curves though it sought activators and does not explain the sign; nearly all actives have a fitted effect of over 65% in size; many hits overshoot -100%
Target sequence (P80244 whole entry, looked up): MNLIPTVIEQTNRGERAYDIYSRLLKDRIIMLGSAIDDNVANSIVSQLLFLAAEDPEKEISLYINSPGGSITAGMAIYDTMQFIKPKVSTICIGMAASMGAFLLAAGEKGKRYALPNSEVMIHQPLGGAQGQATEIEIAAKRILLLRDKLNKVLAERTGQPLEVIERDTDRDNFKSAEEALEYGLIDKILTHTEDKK
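FRET quenching reversal measured ClpP activation: 10 microg/mL B. subtilis ClpP at pH 8 with the FRET-FV decapeptide, read at 430 nm after 320 nm excitation. The 20-min minus 0-min signal was scaled between DMSO/no-enzyme wells and ADEP (5.8 microM final).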
gsp agonist = agonists of gsp mutant (McCune-Albright syndrome) | hit rate 0.13% among 340,000 | gsp mutant cells, cAMP HTRF, 30 min; control for the full effect not named in the record | Potency, µM (doses to about 76.9 µM), for inactives: top-dose activation (cAMP increase), usual class: activators; active = well fitted activation curve with a large enough effect; inconclusive = small, poorly fitted or top-dose-only effect, or another doubt; inactive = no such curve, though single readings can be large or run the other way; cell line not stated here;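 further: phosphodiesterase inhibitor Ro 20-1724 added with compounds to block cAMP breakdown; potency means the concentration at half of the fitted maximal effect; nearly all actives have a fitted effect of over 60% in size; about a fifth of the inactives were tested at one dose only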
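Cells stably selected in G418 were plated at 2000/well, grown 16-24 hr, then given compounds in DMSO with the PDE inhibitor […] (300 uM solution added) for 30 min at 37C; cAMP was read by HTRF.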
Menin-MLL FL inh = menin-MLL binding inhibition, fluorescein peptide; Fluorescence polarization, fluorescein-MLL peptide displacement from menin; FP activity change, % at 61.4 µM; 290,000 tested, under 10 active; AID 1766; inconclusive = falling polarisation curve, or a change in total fluorescence; inactive = total fluorescence flat and polarisation flat or rising; no compound was filed as active; the % refers to the polarisation; negative = inhibition;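 further: % of control where 0% means no effect; inhibitors lower the polarisation; unlabelled MLL peptide was the positive control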
gsp antagonist = gsp mutant antagonism. gsp-mutant cells, cAMP HTRF, 30 min; control for the full effect not named in the record. hit rate 0.4% among 340,000. Potency, µM (series often up to 76.9 µM), for inactives: top-dose activity change, negative = inhibition, usual class: inhibitors; active = falling curve of any shape with a large fitted effect; inconclusive = falling curve, mostly with a smaller effect; inactive = flat or rising curve; cell line not stated here;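 further: intracellular cAMP measured with PDE inhibitor Ro 20-1724 present during compound exposure; potency means the concentration at half of the fitted maximal effect; on the % scale 0 is the no-effect control and ±100 the full control effect; nearly all actives have a fitted effect of over 65% in size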
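Measurement of cellular cAMP by homogeneous time-resolved fluorescence following a 30 min compound exposure at 37C. The PDE inhibitor […] was present throughout; the assay buffer was DPBS with 0.05% BSA and 0.005% Tween 20.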
CtBP-E1A blk = blocks the CtBP interaction with E1A; AlphaScreen GST-E1A/His-CtBP binding, 1536-well; hits give low values; control for the full effect not named in the record; hit rate 0.49% among 340,000; activity change, % (concentration not given with the values); in the data active means activity change below about -65%; inconclusive means about -30% to -65%; inactive means above about -30%; further: on the % scale 0 is the no-effect control and ±100 the full control effect
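Steps: dispense buffer (Tris pH 8.0, NaCl 300 mM, TCEP 1 mM, BSA, Tween 20); add 5X protein mix (GST-E1A, His-CtBP, 125 nM each); pin 23 nL compound; 2 h at 37 °C, dark; add 5X beads (50 ug/mL); 1 h; read.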
TRPV1 PAM = enhances activation of the human vanilloid receptor TRPV1; Q8NER1; potentiation, % at 8.33 µM; hit rate 0.02% among 320,000; TRPV1-expressing cells, Fluo-8 calcium influx, capsaicin EC20 potentiation; host cell line not named in the record; control for the full effect not named in the record; active means potentiation above 80%; inconclusive means 30% to 80%; inactive means below 30%; further: 0% is about no effect
Target sequence (Q8NER1 whole entry, looked up): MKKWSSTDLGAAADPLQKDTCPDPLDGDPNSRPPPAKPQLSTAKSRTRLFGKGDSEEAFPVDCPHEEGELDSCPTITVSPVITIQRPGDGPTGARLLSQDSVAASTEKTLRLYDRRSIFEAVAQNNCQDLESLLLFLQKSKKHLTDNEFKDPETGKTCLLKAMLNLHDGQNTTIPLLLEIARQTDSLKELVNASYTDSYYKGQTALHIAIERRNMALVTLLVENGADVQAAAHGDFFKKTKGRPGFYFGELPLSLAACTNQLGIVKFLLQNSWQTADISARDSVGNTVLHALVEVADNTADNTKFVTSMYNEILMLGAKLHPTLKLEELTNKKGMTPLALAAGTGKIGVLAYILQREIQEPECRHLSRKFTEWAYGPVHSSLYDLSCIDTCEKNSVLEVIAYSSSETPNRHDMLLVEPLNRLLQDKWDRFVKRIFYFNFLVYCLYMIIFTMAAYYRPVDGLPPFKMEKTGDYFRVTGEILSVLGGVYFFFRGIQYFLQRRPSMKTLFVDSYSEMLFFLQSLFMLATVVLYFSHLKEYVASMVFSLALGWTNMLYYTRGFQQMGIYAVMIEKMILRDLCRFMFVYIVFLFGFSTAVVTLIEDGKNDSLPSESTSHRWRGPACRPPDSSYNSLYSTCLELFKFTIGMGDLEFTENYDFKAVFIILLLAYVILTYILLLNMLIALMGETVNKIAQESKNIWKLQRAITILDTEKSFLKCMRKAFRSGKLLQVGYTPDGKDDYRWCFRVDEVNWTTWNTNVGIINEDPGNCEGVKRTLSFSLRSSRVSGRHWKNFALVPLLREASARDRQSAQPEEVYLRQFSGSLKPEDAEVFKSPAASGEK
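Fluo-8 calcium influx in TRPV1-expressing cells, kinetic read (ex 480/em 520 nm). Compound added and read 3 min for agonist activity, followed by capsaicin at EC20 final and 2 min further read for enhancement.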
Sfp inh = blocks B. subtilis Sfp PPTase activity. Potency, µM, for the others: max response, negative = inhibition, actives largely listed as inhibitors. Biochemical Sfp PPTase activity, qHTS. Q9F4F7. hit rate 3.5% among 310,000; active means well fitted inhibition curve with a large enough effect; inconclusive means small, poorly fitted or top-dose-only effect, or another doubt; inactive means no such curve, though single readings can be large or run the other way;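 further: the enzyme is Sfp with the accession as filed and its product quenches rhodamine fluorescence; potency means the concentration at half of the fitted maximal effect; 0% = enzyme reaction without inhibitor and -100% = no enzyme wells; top concentration of the series not given in the record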
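Sfp 15 nM + cpd, 15 min RT; start w/ rhodamine-CoA 5 uM, BHQ-2-YbbR 12.5 uM (final); 50 mM Hepes pH 7.6, 10 mM MgCl2, 0.01% NP-40, 0.01% BSA; read 525/598 nm at 0 and 30 min.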
Active calls of the source: *; ? = inconclusive; . = not tested or not shown; & = joins results of further samples; [ ] = another dose, or the depositor's remark.

No.	canonical_smiles	ClpP mod	gsp agonist	Menin-MLL FL inh	gsp antagonist	CtBP-E1A blk	TRPV1 PAM	Sfp inh
1	COc1ccc(N2C(=O)CSC2c2ccccc2)cc1 (stereo not given)	.	6.8%	0.3	-3.2%	5.2	9.3	19.3%
2	Cc1nc2ccc(C(=O)Nc3ccc4nc[nH]c4c3)cc2[nH]1	0.6%	-6.3%[15.4 µM]	1.4	4.3%	-4.2	5.8	-3.8%
3	O=C(Nc1ccc2nc3n(c(=O)c2c1)CCCC3)c1cccc([N+](=O)[O-])c1	1.1%	?	-0.1	-4.7%	-0.4	2.1	8.0%
4	Cc1ccc(C(=O)Nn2cnnc2)cc1S(=O)(=O)N1CCOCC1	.	-1.7%[15.4 µM]	4.4	1.0%	-2.7	-4.3	12.4%
5	CCCC1(C(=O)OCC)NC(c2ccc(OC)cc2OC)C2C(=O)N(c3ccccc3)C(=O)C21 (stereo not given)	-0.9%	-26.2%	5.0	-3.6%	-2.5	-12.4	-15.1%
6	CCCN1C(=O)/C(=C\C=C2/C=CN(CC)c3ccccc32)SC1=S	-11.7%	-94.1%[inhibitor]	2.2	?	-1.2	-18.5	7.08µM*
7	O=C(N/C(=C\c1ccc([N+](=O)[O-])cc1)C(=O)N1CCOCC1)c1ccccc1	.	9.0%[15.4 µM]	15.2	0.8%	6.6	?	-10.5%
8	CCN(C(=O)CSc1nnc(Nc2ccccc2C)s1)C1CCS(=O)(=O)C1 (stereo not given)	28.2µM*	-1.4%	-3.1	0.4%	12.6	24.5	3.1%

Other results:
No.	canonical_smiles	ClpP mod	gsp agonist	Menin-MLL FL inh	gsp antagonist	CtBP-E1A blk	TRPV1 PAM	Sfp inh
9	COc1ccc(-n2nnc3c(SCC(=O)c4ccccc4)ncnc32)cc1	-9.5%	?	11.4	-5.7%	5.2	13.3	5.6%
10	O=C(Nc1cccc(Cl)c1)Nc1ccccc1NS(=O)(=O)c1cccs1	.	0.0%	4.3	-18.3%	?	3.8	13.5%
11	O=c1c(-c2nc3ccccc3s2)cccn1Cc1ccccc1	12.2%	16.2%	5.7	-5.6%	20.5	.	-22.7%
12	CNC(=O)/C(C#N)=C/c1cc(C)n(-c2ccc(N3CCOCC3)cc2)c1C	3.8%	26.3%	5.9	-6.5%	1.9	1.7	7.5%
13	COc1cccc(NC(=O)CSc2ccc3nnc(-c4ccccn4)n3n2)c1	0.0%	?	.	2.9%	-26.7	-0.7	10.4%
14	O=C(Nc1ccc(-c2nc3ccccc3o2)cc1)c1ccc(N2C(=O)C3C4C=CC(C4)C3C2=O)cc1 (stereo not given)	3.16µM*	16.3%	-1.1	-7.1%	10.2	0.6	-21.3%
15	COc1ccc2c(c1)c(/C=N/Nc1ccc(C(=O)O)cc1)c(C)n2C	-20.2%	-31.5%[inhibitor]	?	-14.1%	.	-2.4	-5.9%
16	COc1ccc(/C=N/OC(=O)Nc2ccccc2)cc1[N+](=O)[O-]	.	2.2%	0.5	-17.7%	-0.9	-14.8	7.8%

Four records picked at random from the list so far:
No.	canonical_smiles	ClpP mod	gsp agonist	Menin-MLL FL inh	gsp antagonist	CtBP-E1A blk	TRPV1 PAM	Sfp inh
14	O=C(Nc1ccc(-c2nc3ccccc3o2)cc1)c1ccc(N2C(=O)C3C4C=CC(C4)C3C2=O)cc1 (stereo not given)	3.16µM*	16.3%	-1.1	-7.1%	10.2	0.6	-21.3%
9	COc1ccc(-n2nnc3c(SCC(=O)c4ccccc4)ncnc32)cc1	-9.5%	?	11.4	-5.7%	5.2	13.3	5.6%
13	COc1cccc(NC(=O)CSc2ccc3nnc(-c4ccccn4)n3n2)c1	0.0%	?	.	2.9%	-26.7	-0.7	10.4%
16	COc1ccc(/C=N/OC(=O)Nc2ccccc2)cc1[N+](=O)[O-]	.	2.2%	0.5	-17.7%	-0.9	-14.8	7.8%

Following part:
No.	canonical_smiles	ClpP mod	gsp agonist	Menin-MLL FL inh	gsp antagonist	CtBP-E1A blk	TRPV1 PAM	Sfp inh
17	Cc1cc(-n2c(C)cc(C(=O)COc3ccc4ccc(=O)oc4c3)c2C)no1	-17.4%	5.9%	1.2	-30.5%	2.9	-5.9	-15.1%
18	CCC(C)(C)NC(=O)CN(C(=O)CCC(=O)Nc1nccs1)c1cccc(C)c1	0.8%	-20.1%	-13.6	0.1%	.	-5.9	11.4%
19	CC(C)CC(=O)N1CCN(C(=O)c2ccco2)CC1	.	2.6%[15.4 µM]	-2.1	.	-12.1	-0.7	18.3%
20	N#Cc1cn(CCOC(=O)c2cccc(C(F)(F)F)c2)c(=O)[nH]c1=O	.	-32.8%[inhibitor]	4.4	-16.7%	1.5	-7.2	6.3%
21	COc1ccc(/C=N\NC(=O)C2=NNC(=O)C2C)cc1 (stereo not given)	-0.2%	?	5.2	7.0%	-3.9	.	-1.0%
22	COc1cccc(/C=N/NC(=O)C(=O)NCc2cccnc2)c1OC	.	13.6%[15.4 µM]	-1.3	.	0.0	1.0	3.6%
23	CCc1cc2ccc(C)cc2nc1SCC(=O)c1ccc(NC(C)=O)cc1	-0.5%	1.5%	?	-13.6%	-0.3	6.1	6.0%
24	OCC1OC(n2nc3ccccc3n2)C(O)C(O)C1O (stereo not given)	-0.1%	-33.0%	2.6	6.0%	11.1	-8.1	-7.5%

More entries follow:
No.	canonical_smiles	ClpP mod	gsp agonist	Menin-MLL FL inh	gsp antagonist	CtBP-E1A blk	TRPV1 PAM	Sfp inh
25	COc1ccc(C(=O)C2CCCN(Cc3cccn3-c3cccnc3)C2)cc1OC (stereo not given)	.	-20.1%[15.4 µM]	-0.1	-5.8%	-5.1	-1.9	7.4%
26	Cc1cccc2c1nc(-c1ccccc1)n1cnnc21	-10.5%	4.5%	2.1	4.2%	-6.4	-0.1	-2.3%
27	CCOC(=O)c1c(NC(=O)CSC(=S)N2CCOCC2)sc(C)c1C	-5.0%	3.8%	2.5	-11.5%	-5.9	-25.6	-15.0%
28	CCCC(=O)N1CCN(c2ccc(NC(=O)c3ccc(OCC)c([N+](=O)[O-])c3)cc2)CC1	-18.0%	-11.7%	-0.9	6.7%	0.1	-0.5	7.4%
29	C=CCNc1nc(C(=O)OCC(=O)Nc2cccc(SC)c2)cs1	.	8.6%[15.4 µM]	.	5.5%	3.9	21.9	.
30	CCCCNC(=O)CCC(=O)NNc1nc2ccccc2c2nc(-c3ccccc3)nn12	4.2%&0.4%	-9.7%[15.4 µM]	0.4	0.0%	-2.1	8.3	?
31	CCCN=C1N(C)C[C@@H]2[C@@H]3C(=O)N(Cc4ccccc4)C(=O)[C@@H]3[C@](CC)(C(=O)OC)N12	-9.0%	.	.	9.6%	-13.5	.	.
32	Cc1ccc(NC(=O)CCC(=O)NNC(=O)COc2cccc3ccccc23)c(C)c1	-6.1%	4.9%	-1.1	9.2%	51.4	29.6	10.4%

Continuation:
No.	canonical_smiles	ClpP mod	gsp agonist	Menin-MLL FL inh	gsp antagonist	CtBP-E1A blk	TRPV1 PAM	Sfp inh
33	Cc1nnc(NNS(=O)(=O)c2ccc(Cl)cc2)[nH]c1=O	-1.6%	3.7%	-4.8	6.4%	-17.3	12.3	44.7µM*
34	COc1ccc(OC)c(S(=O)(=O)Nc2c(C)cccc2C)c1	.	-29.9%	1.9	0.0%	2.7	-1.4	24.6%
35	CCC(=O)Nc1nnc(-c2ccccn2)o1	?	-2.1%	2.8	6.2%	11.2	-11.0	50.1µM*
36	CCOC(=O)c1sc(NC(=S)NC(=O)c2ccc(OC)cc2)nc1C	-0.1%	6.8%[15.4 µM]	2.0	5.5%	1.6	-5.7	-21.5%
37	COc1ccc(C(C)(C)C)cc1NC(=O)CSc1ncn[nH]1	.	1.2%[15.4 µM]	.	-5.2%	-2.4	-5.2	.
38	Cn1c(CC(=O)Nc2ccccc2Cl)nnc1SCC(=O)Nc1nncs1	.	-107.8%[inhibitor]	0.1	-1.2%	-8.1	0.1	3.4%
39	C/C(CC(=O)Nc1cc(C)ccn1)=N\NC(=O)c1ccncc1	.	-23.2%	-6.2	3.3%	-17.1	23.3	-13.1%
40	CC1=C(C(=O)OC(C)C)C(c2ccc(N(C)C)cc2)C2=C(CC(C)(C)CC2=O)N1 (stereo not given)	5.1%	27.6%	3.4	2.1%	-25.3	-8.5	-8.3%

Additional structures
No.	canonical_smiles	ClpP mod	gsp agonist	Menin-MLL FL inh	gsp antagonist	CtBP-E1A blk	TRPV1 PAM	Sfp inh
41	O=C(N/N=C/c1ccc(OCC(=O)N2CCCCC2)cc1)c1ccccc1O	-3.1%	0.0%	3.2	-19.2%	-8.6	-4.8	14.8%
42	CN(Cc1nccs1)C(=O)c1ccc(OC2CCN(CCc3ccccc3)CC2)cc1	-3.1%	5.8%	-3.8	5.9%	-1.9	4.6	-1.6%
43	CC(=O)Oc1ccc(C(=O)Nc2ccc(C3(C#N)CCCC3)cc2)cc1	?	?	0.3	-0.2%	.	85.9*	6.4%
44	C/C(=N/NC(=O)c1cccs1)c1ccco1	-0.6%	-7.6%	16.0	4.2%	0.8	18.1	-5.8%
45	O=C(/C=C/c1ccc(F)cc1)NC(=S)N1CCN(Cc2ccccc2)CC1	2.8%	-10.2%[15.4 µM]	5.2	-0.7%	?	-3.0	6.4%
46	COc1cc(OC)cc(C(=O)N[C@H](C(=O)OCC(=O)N2CCc3ccccc32)C(C)C)c1	.	-21.8%	-4.6	-2.2%	0.6	18.0	11.6%
47	CCOC(=O)C(Cc1ccccc1)NC(=O)CCC(=O)c1ccc(OC)cc1 (stereo not given)	-8.5%	-8.3%	0.0	-10.9%	.	-7.5	11.8%
48	COCCn1cc(C(=O)c2ccccc2OCC(=O)Nc2cc(C)on2)cc(C#N)c1=O	-2.0%	-12.4%	-1.1	3.4%	0.8	?	4.8%
49	CCC(=O)NC1(C(F)(F)F)C(=O)Nc2c1c(=O)n(C)c(=O)n2C (stereo not given)	5.1%	24.9%	0.1	1.9%	5.9	-1.3	17.8%
50	N#Cc1nc(COc2ccccc2)oc1N1CCCC1	-0.3%	-1.9%[15.4 µM]	-1.4	-2.0%	-4.8	3.1	-10.6%
51	COc1ccc(C2=CN(Cc3ccccc3)CCC2=O)cc1	-0.2%	.	.	4.5%	-24.6	.	.
